MbtI inh: MbtI salicylate synthase inhibition; P9WFX0; purified MbtI enzyme, fluorescence intensity read-out; inhibition, %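 (about 17 µg/mL by stock and volumes)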; 100,000 compounds, 0.89% hits;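 active = above 50% in both replicates, above 80% if mildly self-fluorescent; inactive = the rest, strongly fluorescent compounds included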;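 also: 0% = mean of negative and 100% = mean of positive controls; one replicate is shown; some compounds called inactive have numbers as strong as hits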
Target sequence (P9WFX0 whole entry, looked up): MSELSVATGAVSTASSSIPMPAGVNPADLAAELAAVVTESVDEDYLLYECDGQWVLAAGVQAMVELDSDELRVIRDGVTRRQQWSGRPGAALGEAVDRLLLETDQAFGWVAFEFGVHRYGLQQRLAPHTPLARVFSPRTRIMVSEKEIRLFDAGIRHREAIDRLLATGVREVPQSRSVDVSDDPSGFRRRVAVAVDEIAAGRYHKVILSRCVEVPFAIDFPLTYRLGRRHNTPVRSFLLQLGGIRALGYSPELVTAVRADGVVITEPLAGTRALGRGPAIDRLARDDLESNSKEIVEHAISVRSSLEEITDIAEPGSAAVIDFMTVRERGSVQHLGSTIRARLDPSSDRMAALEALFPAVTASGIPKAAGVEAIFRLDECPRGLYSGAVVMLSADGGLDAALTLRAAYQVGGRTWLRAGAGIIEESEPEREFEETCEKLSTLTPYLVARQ
PV pol inh: poliovirus RNA polymerase inhibition; P03300; poliovirus polymerase elongation, fluorescence polarization; active compounds read low; % elongation, % (compound at 16.7 µg/mL); 150,000 compounds, 0.66% hits; AID 588519; in the data active = % elongation below about 90%; also: some results filed as inactive read as strong as hits
MenB inh: Mtb MenB enzyme inhibition. 100,000 compounds, 0.43% hits. P9WNP5. MenB enzyme assay, absorbance read-out; some hits fall short of the stated cut. inhibition, %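 (about 12 µg/mL by stock and volumes)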;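 active = mean of two replicates above 30%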;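 also: 0% = no compound and 100% = wells with inactive enzyme; the first replicate is given; strong numbers were not always called active; inactives centre near -10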
Target sequence (P9WNP5 whole entry, looked up): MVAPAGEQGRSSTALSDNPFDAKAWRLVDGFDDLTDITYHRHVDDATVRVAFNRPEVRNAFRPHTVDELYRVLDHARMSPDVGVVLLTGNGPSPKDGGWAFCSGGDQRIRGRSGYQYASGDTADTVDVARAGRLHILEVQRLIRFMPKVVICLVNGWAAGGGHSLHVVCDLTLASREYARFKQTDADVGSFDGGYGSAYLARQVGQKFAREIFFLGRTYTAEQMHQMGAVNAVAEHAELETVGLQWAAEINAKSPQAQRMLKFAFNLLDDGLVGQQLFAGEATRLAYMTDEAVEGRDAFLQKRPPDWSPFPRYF
PV pol inh intensity: further read-out of PV pol inh, marked with its call; % elongation; measured here: total intensity read-out; formula for this scale not given here;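 total fluorescence in place of polarization; lower means less elongation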
The depositor's hits bear a star; · = not tested or not shown.

Sample of the layout (two entries):
nr	SMILES	MbtI inh	PV pol inh
1	Cc1nc(Cc2nnc(SCC(=O)NC(C)(C)C)o2)cs1	-7	103
2	COc1cc2c(c(OC)c1OC)CC(N)CCC2 (stereo unspecified)	-10	101

nr	PV pol inh intensity	MenB inh
1	108	-19
2	99	·

The listing, from the first entry:
nr	SMILES	MbtI inh	PV pol inh
1	Cc1nc(Cc2nnc(SCC(=O)NC(C)(C)C)o2)cs1	-7	103
2	COc1cc2c(c(OC)c1OC)CC(N)CCC2 (stereo unspecified)	-10	101
3	O=C(CC1(C(=O)O)CCCC1)NC1CC1	-5	·
4	CCCCN(CC)Cc1ccc(CNC(=O)Nc2ccc(OCC)cc2)o1	0	101
5	N#CCCCOc1ccccc1	3	105
6	COc1ccc(C(=O)n2nc3c(c2-c2ccc(OC)cc2)COC(C)(C)C3)cc1	-7	103
7	N#CC(C#N)=Cc1cccn1-c1ccc(C(F)(F)F)cc1	-14	102
8	Cc1ccc(NC(=O)Cn2ccn(CCc3ccc(S(N)(=O)=O)cc3)c(=O)c2=O)cc1F	51	101
9	Cc1ccc2c(C)nc(NC3=NC(C(=O)Nc4ccc(Cl)c(Cl)c4)CC(=O)N3)nc2c1 (stereo unspecified)	-2	102
10	COc1ccc(CC(=O)Nc2ccc3c(C(F)(F)F)cc(=O)oc3c2)cc1OC	84	103
11	O=c1cc(-c2ccccc2)sc2ccc(Cl)cc12	0	100
12	O=C(O)/C=C\C(=O)Nc1ccccc1Sc1nccc(C(F)(F)F)n1	14	105
13	O=C(NC1CCCCC1)C(c1ccncc1)N(CC1CCCO1)C(=O)C(F)(F)F (stereo unspecified)	-5	100
14	Oc1cc2c(cc1CN1CC=C(c3ccccc3)CC1)OCO2	9	101
15	O=C(C1CC(=O)N(c2ccccc2)C1)N1CCN(c2ccccc2F)CC1 (stereo unspecified)	-14	101

nr	PV pol inh intensity	MenB inh
1	108	-19
2	99	·
3	·	-4
4	104	12
5	102	-1
6	108	-7
7	102	-54
8	103	3
9	103	13
10	107	4
11	102	7
12	94	-24
13	101	12
14	110	6
15	102	-13

(list continues)
nr	SMILES	MbtI inh	PV pol inh
16	O=[n+]1cc(-c2cccc(C(F)(F)F)c2)n([O-])c2c1CCCC2	0	105
17	COc1ccc(C2C(C#N)=C3N=C(N)c4ccccc4N3C3=C2C(=O)CC(C)(C)C3)cc1 (stereo unspecified)	8	103
18	Cc1ccc(NC(=O)CONS(=O)(=O)c2ccccc2)cc1C	3	101
19	COCCn1c(SCC(=O)NCc2ccco2)nnc1-c1cccs1	6	102
20	Cn1c(=NC(=O)CN2C(=O)CCC2=O)sc2cccc(F)c21	2	97
21	COc1ccc(C(=O)NN=C2CCCC2)cc1	6	103
22	Nc1ccc2nc(CCC(=O)O)[nH]c2c1	3	102
23	O=S1(=O)CCC(n2nnnc2-c2ccc(Cl)cc2)C1 (stereo unspecified)	-8	102
24	c1cncc(C2Nc3ccccc3-c3nc4ccccc4n32)c1 (stereo unspecified)	100	98
25	COc1cccc(-c2noc(-c3cc4ccccc4oc3=O)n2)c1	-31	103
26	CC(C)(C)c1ccc2c(c1)N(CC(=O)N1CCOCC1)C(=O)CO2	-25	104
27	Cc1cc(N2CCN(C(=O)OC(C)(C)C)CC2)nc(C(C)C)n1	15	101
28	CCSCc1cc(=O)[nH]c(-c2ccc(C(F)(F)F)cc2)n1	9	101
29	O=C(NCc1ccccc1)C1CCCN1C(=O)OCc1ccccc1 (stereo unspecified)	·	104
30	CC(Oc1ccc(Cl)cc1Cl)C(=O)NN1C(=O)c2ccccc2C1=O (stereo unspecified)	·	105

nr	PV pol inh intensity	MenB inh
16	104	-9
17	107	-7
18	92	-25
19	102	-4
20	106	-9
21	102	2
22	104	2
23	104	0
24	103	-21
25	104	-28
26	103	-3
27	106	-12
28	102	-8
29	99	-4
30	113	-7

Next section:
nr	SMILES	MbtI inh	PV pol inh
31	CCC(=O)N=c1sc2ccccc2n1-c1ccccc1	-7	105
32	O=C(CCc1nc(-c2ccccc2)no1)N1CCOCC1	0	102
33	CC(C)C(OC(=O)c1cc2occc2n1C(C)C)C(=O)NCC1CCCO1 (stereo unspecified)	17	106
34	CC(=O)NCc1ccco1	-8	102
35	CCCCC(=O)n1c(=O)oc2ccc(C(C)(C)C)cc21	2	100
36	Cc1ccc(S(=O)(=O)N2CCCCC2)cc1C(=O)c1nccn1C	-2	106
37	Cc1cc(C)c(Cn2c(S(=O)(=O)Cc3ccccc3)nc3ccccc32)c(C)c1	-18	104
38	CCC(C)=C(C(=O)OC)C(=O)OC	10	101
39	NC(=O)Cn1cc(C(=O)c2ccccc2)c2ccccc21	·	108
40	O=C(COC(=O)c1ccco1)NC1CCCc2ccccc21 (stereo unspecified)	2	103
41	CC(=O)N1CCN(C(=O)Nc2c[nH]c3ccccc23)CC1	8	105
42	C=CCN1C(=O)C2Cc3c([nH]c4ccccc34)C(C)N2C1=S (stereo unspecified)	4	76
43	CCn1c(SCC(=O)Nc2sccc2C(N)=O)nnc1-c1ccco1	10	97
44	CN(C)c1ccc(-c2n(C)c3ccccc3[n+]2C)cc1	10	101
45	COC(=O)c1ccc(COC(=O)c2cccs2)cc1	-4	102

nr	PV pol inh intensity	MenB inh
31	103	-29
32	102	4
33	106	-31
34	108	-5
35	100	-30
36	102	-4
37	110	-9
38	99	-22
39	103	-5
40	105	8
41	105	-11
42	181	-14
43	105	10
44	97	16
45	100	-10

The listing continues:
nr	SMILES	MbtI inh	PV pol inh
46	Cc1ccc(CSCc2ccc(C(=O)NCCc3ccccc3)o2)cc1	-2	104
47	CS(=O)(=O)N1Cc2ccccc2CC1C(=O)OCC(=O)c1ccc[nH]1 (stereo unspecified)	-11	102
48	O=C(O)c1coc2c(F)c(F)c(F)cc2c1=O	0	100
49	COc1ccc(C2=CN3C(=O)CSC3=NN2)cc1	·	106
50	C/C(=N\NC(N)=O)C1CCCCC1	-13	104
51	O=C(CCC(=O)N1CC2CCCN2c2ccccc21)NCc1ccco1 (stereo unspecified)	12	102
52	O=c1nc(N2CCOCC2)ccn1Cc1ccc(Br)cc1	4	99
53	O=C(CC1OCCN(Cc2ccccc2)C1=O)Nc1ccc(F)cc1 (stereo unspecified)	39	99
54	O=C(OCC1CC2C=CC1C2)c1cc2ccccc2oc1=O (stereo unspecified)	3	101
55	CC1(C)CC(NC2CCC(C#N)(c3ccccc3)CC2)CC(C)(C)N1 (stereo unspecified)	0	105
56	CN1C(=O)NC(=O)/C(=C\C=C\c2ccco2)C1=O	21	105
57	CC1C(c2cccs2)=[N+]([O-])C(C)(C(=O)c2ccc(F)cc2)N1O (stereo unspecified)	10	103
58	Cc1cc(N2CCN(c3ncccn3)CC2)nc2ccc(NC(=O)c3cccc(F)c3)cc12	-9	102
59	O=C(CN1C(=O)CC(c2ccco2)Sc2ccccc21)c1ccccc1 (stereo unspecified)	0	102
60	CC(C)(C)C(=O)C[n+]1cccc(/C=N/O)c1	52	99

nr	PV pol inh intensity	MenB inh
46	106	-1
47	105	-40
48	94	·
49	111	-3
50	106	-2
51	99	-18
52	101	7
53	100	-4
54	98	-4
55	103	-2
56	112	-268
57	101	1
58	103	-58
59	102	-18
60	102	-24

Some of the entries so far, tab-delimited:
#	mol	MbtI inh	PV pol inh	PV pol inh intensity	MenB inh
38	CCC(C)=C(C(=O)OC)C(=O)OC	10	101	99	-22
39	NC(=O)Cn1cc(C(=O)c2ccccc2)c2ccccc21	·	108	103	-5
40	O=C(COC(=O)c1ccco1)NC1CCCc2ccccc21 (stereo unspecified)	2	103	105	8
41	CC(=O)N1CCN(C(=O)Nc2c[nH]c3ccccc23)CC1	8	105	105	-11
42	C=CCN1C(=O)C2Cc3c([nH]c4ccccc34)C(C)N2C1=S (stereo unspecified)	4	76	181	-14
43	CCn1c(SCC(=O)Nc2sccc2C(N)=O)nnc1-c1ccco1	10	97	105	10
44	CN(C)c1ccc(-c2n(C)c3ccccc3[n+]2C)cc1	10	101	97	16
45	COC(=O)c1ccc(COC(=O)c2cccs2)cc1	-4	102	100	-10
46	Cc1ccc(CSCc2ccc(C(=O)NCCc3ccccc3)o2)cc1	-2	104	106	-1
47	CS(=O)(=O)N1Cc2ccccc2CC1C(=O)OCC(=O)c1ccc[nH]1 (stereo unspecified)	-11	102	105	-40
48	O=C(O)c1coc2c(F)c(F)c(F)cc2c1=O	0	100	94	·
49	COc1ccc(C2=CN3C(=O)CSC3=NN2)cc1	·	106	111	-3
50	C/C(=N\NC(N)=O)C1CCCCC1	-13	104	106	-2
51	O=C(CCC(=O)N1CC2CCCN2c2ccccc21)NCc1ccco1 (stereo unspecified)	12	102	99	-18
52	O=c1nc(N2CCOCC2)ccn1Cc1ccc(Br)cc1	4	99	101	7
53	O=C(CC1OCCN(Cc2ccccc2)C1=O)Nc1ccc(F)cc1 (stereo unspecified)	39	99	100	-4
54	O=C(OCC1CC2C=CC1C2)c1cc2ccccc2oc1=O (stereo unspecified)	3	101	98	-4
55	CC1(C)CC(NC2CCC(C#N)(c3ccccc3)CC2)CC(C)(C)N1 (stereo unspecified)	0	105	103	-2
56	CN1C(=O)NC(=O)/C(=C\C=C\c2ccco2)C1=O	21	105	112	-268
57	CC1C(c2cccs2)=[N+]([O-])C(C)(C(=O)c2ccc(F)cc2)N1O (stereo unspecified)	10	103	101	1
58	Cc1cc(N2CCN(c3ncccn3)CC2)nc2ccc(NC(=O)c3cccc(F)c3)cc12	-9	102	103	-58
59	O=C(CN1C(=O)CC(c2ccco2)Sc2ccccc21)c1ccccc1 (stereo unspecified)	0	102	102	-18
60	CC(C)(C)C(=O)C[n+]1cccc(/C=N/O)c1	52	99	102	-24

Next section.
nr	SMILES	MbtI inh	PV pol inh
61	Cc1ccc(N2C(=O)CSC2c2ccccc2C(F)(F)F)cc1C (stereo unspecified)	7	103
62	O=C1CC(Sc2ncccc2C(=O)O)C(=O)N1 (stereo unspecified)	3	101
63	O=C(N/N=C1\CCc2ccccc21)c1ccc(O)cc1	-24	106
64	CCC(=O)n1nc(-c2ccco2)nc1SCc1ccccc1	-10	101
65	O=C(NCc1ccccc1CN1CCOCC1)c1n[nH]c(=O)c2ccccc12	-1	103
66	Cc1ccc(NC(=O)COc2nc3nncn3nc2C)cc1	-2	100
67	CC1(C)C=C(/C=C/c2ccccc2F)NC(=S)N1	·	106
68	CCOC(=O)c1c(NC(C)=O)sc(Br)c1-c1ccc(C)cc1	3	102
69	CC(C)CNC(=O)c1cccc(S(=O)(=O)N2CCCC2)c1	-6	104
70	CC1=NN(c2ncnc3sc4c(c23)CCCC4)C(=O)C1	-14	103
71	Cc1c(N)cc(C(F)(F)F)cc1C(F)(F)F	6	101
72	CN(C)c1ccnc(NCc2ccccc2)c1C#N	-20	101
73	CC1(C)Cc2c(ccc3ccccc23)C(Sc2ccc(N)cc2)=N1	·	114
74	O=c1cc(CSCc2ccccc2)nc2sccn12	23	98
75	CCCCn1c(N)cc(=O)[nH]c1=O	-10	100

nr	PV pol inh intensity	MenB inh
61	106	-16
62	101	-57
63	112	-25
64	104	-6
65	107	-14
66	92	-19
67	112	-26
68	100	·
69	108	·
70	106	16
71	101	9
72	102	-57
73	115	-6
74	95	11
75	108	-15

(cont.)
nr	SMILES	MbtI inh	PV pol inh
76	O=C(Nc1cccs1)Nc1ccccc1N1CCCCC1	6	105
77	CCCCSc1nc2ccccc2[nH]1	-2	99
78	Fc1cc(Br)ccc1N=Cc1ccccn1	-1	101
79	CCOC(=O)c1cnn(C(=O)c2snnc2C)c1N	-3	103
80	Cc1ccc(CC2CC(=O)N(c3ccccn3)C2=O)cc1 (stereo unspecified)	2	100
81	CCC(=O)Nc1sccc1C(=O)OC	4	100
82	O=C1CNC(=S)N1CCOc1ccccc1Cl	2	94
83	Cc1cccc(-c2noc(NC(=O)O/N=C/c3c(Cl)cccc3Cl)n2)c1	17	97
84	CCOc1ccc(-c2c(C#N)c(N)nc(SCC(=O)c3ccc(Cl)cc3)c2C#N)cc1	-4	103
85	CC(C)(C)c1nnc(Nc2ccc3c(c2)OCO3)n(N)c1=O	·	94
86	CCOC(=O)C1CCN(C2c3ccccc3-c3ccccc32)CC1	-5	107
87	CC12CCC(c3c1noc3C(F)(F)F)C2(C)C (stereo unspecified)	-8	109
88	O=C(NC1CCCC1)c1ccc2c(c1)C(=O)N(CC1CCCO1)C2=O (stereo unspecified)	-11	100
89	COc1nc(OC)nc(N2CCCc3cccc(C)c32)n1	-3	102
90	NC(=O)Cn1cc(/C=C2/C(=O)NC(=O)N(C3CCCCC3)C2=O)c2ccccc21	-1	82
91	CC1C/C(=N\NC(=O)C2COc3ccccc3O2)CC(C)(C)C1 (stereo unspecified)	-31	103
92	CCC(=O)N1N=C(c2ccc(F)cc2)CC1c1ccc(OC)cc1 (stereo unspecified)	-159	101

nr	PV pol inh intensity	MenB inh
76	102	-1
77	102	9
78	102	·
79	106	11
80	102	-1
81	104	5
82	89	-28
83	104	-14
84	107	-38
85	97	-3
86	96	-24
87	117	-10
88	102	13
89	102	-9
90	157	-26
91	106	-21
92	101	-23
